# A647 autofl: qHTS Assay for Spectroscopic Profiling in A647 Spectral Region; Compound fluorescence, A647 channel (570/671 nm), Tris buffer; max dye-equivalent concentration, M; 59,000 tested, under 10 active; AID 592, 2007; active means above 1 µM dye equivalent; inconclusive means 0.1 to 1 µM; inactive means 0.1 µM or less;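 note: values scaled relative to a standard on each plate; highest value over a series up to 38 µM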
#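 Spectral profiling of library compounds in pH 8.0 Tris: 15 min room-temperature incubation, single ex/em pair (570/671 nm), response normalized to Alexa 647 equivalents.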
# AID923: qHTS Assay for Allosteric/Competitive Inhibitors of Caspase-1: Spectroscopic Profiling in AFC Spectral Region; AID 923, 2007; 75,000 compounds, 1.1% hits; compound fluorescence, AFC spectral region (405/520 nm); almost no hit is shown here; Potency, µM (top dose mostly 57.5 µM), for the others: top-dose fluorescence increase, usual class: activators; active = well fitted activation curve with a large enough effect; inconclusive = small, poorly fitted or top-dose-only effect;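 note: potency is the fitted concentration of half-maximal effect; 0% is about no effect; scaled to a free AFC standard on each plate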
#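 Baseline compound fluorescence (AFC region, 405 nm ex/520 nm em) taken from the intercept of kinetic reads with 50 nM caspase-1 and 5 uM Ac-WEHD-AFC; normalized to an on-plate AFC standard curve; compounds titrated up to 57 uM.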
# Resorufin fluor: qHTS Assay for Spectroscopic Profiling in Resorufin Spectral Region; max dye-equivalent concentration, M; 59,000 compounds, 0.04% hits; Compound fluorescence, resorufin region 547/598 nm, buffer; hits give high values; active = above 10 nM dye equivalent; inconclusive = 1 to 10 nM; inactive = 1 nM or less; a few of its hits are not listed in these tables; note: highest value over a series up to 38 µM
#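 Intrinsic fluorescence profiled in the resorufin window (ex 547 nm, em 598 nm) after 15 min at room temperature in pH 8.0 Tris buffer (100 mM); responses normalized against a six-point resorufin standard series as dye-equivalent concentration.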
# A488 autofl: qHTS Assay for Spectroscopic Profiling in A488 Spectral Region; compound autofluorescence, A488 spectral region, dye equivalency; hits give high values; max dye equivalency, M; 59,000 compounds, 0.1% hits; active = above 10 nM dye equivalent; inconclusive = 1 to 10 nM; inactive = 1 nM or less; about half of its hits are not listed in these tables;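 note: highest value over a series up to 38 µM; compound alone in buffer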
#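 Spectroscopic profiling in the A488 region: compounds in pH 8.0 Tris (100 mM), 15 min RT, CCD imaging with 480 nm excitation and 540 nm emission; responses normalized against A488 dye standards.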
# TSHR ag: qHTS Assay for Agonists of the Thyroid Stimulating Hormone Receptor. Thyrotropin receptor (Homo sapiens), P16473. HEK293-CNG-TSHR cells (CNG channel as cAMP sensor), membrane potential dye, cAMP. Potency, µM (titrated, usually from 57.1 µM), for the others: top-dose activation, hits mostly activators. 73,000 compounds, 0.48% hits. AID 926, 2007; active = well fitted activation curve of enough size with the parental cells flat; inconclusive = any curve in the parental cells; inactive = parental cells flat and receptor cells flat or falling; note: potency is the fitted concentration of half-maximal effect; % of control where 0% means no effect; weak receptor curves with flat parental cells got no call and are not listed
# Target sequence (P16473 whole entry, looked up): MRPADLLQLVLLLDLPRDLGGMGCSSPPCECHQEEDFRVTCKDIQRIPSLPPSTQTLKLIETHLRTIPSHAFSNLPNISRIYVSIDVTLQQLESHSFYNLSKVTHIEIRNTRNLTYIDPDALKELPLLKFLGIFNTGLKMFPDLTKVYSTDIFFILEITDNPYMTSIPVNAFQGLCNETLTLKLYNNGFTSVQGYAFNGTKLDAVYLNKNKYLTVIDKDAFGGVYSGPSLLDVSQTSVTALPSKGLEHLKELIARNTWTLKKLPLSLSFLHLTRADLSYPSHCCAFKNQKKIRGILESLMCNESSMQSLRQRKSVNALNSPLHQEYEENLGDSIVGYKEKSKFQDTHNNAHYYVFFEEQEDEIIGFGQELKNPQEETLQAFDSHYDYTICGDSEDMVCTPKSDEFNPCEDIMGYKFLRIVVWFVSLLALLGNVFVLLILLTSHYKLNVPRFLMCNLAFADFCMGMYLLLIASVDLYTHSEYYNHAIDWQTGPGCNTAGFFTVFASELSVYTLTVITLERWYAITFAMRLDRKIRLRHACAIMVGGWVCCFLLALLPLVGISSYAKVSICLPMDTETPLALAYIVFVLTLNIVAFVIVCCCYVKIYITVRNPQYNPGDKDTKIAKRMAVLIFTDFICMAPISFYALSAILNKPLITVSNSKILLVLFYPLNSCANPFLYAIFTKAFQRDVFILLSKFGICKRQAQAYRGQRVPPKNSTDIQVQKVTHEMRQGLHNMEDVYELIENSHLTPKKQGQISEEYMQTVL
#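 cAMP rise detected as CNG-channel membrane depolarization by fluorescent dye (emission 590 nm), 30 min after compound, following 60 min dye loading containing 100 uM RO 20-1724 at room temperature. Cells: TSHR/CNG HEK 293, with parental CNG HEK 293 as control.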
# * = called active by the depositor; i = inactive; ? = inconclusive; / = no result given; [ ] = dose if it differs, or a comment. This is a subset; the hit share may differ from the screen's.
SMILES,A647 autofl,AID923,Resorufin fluor,A488 autofl,TSHR ag
CCN(CC)S(=O)(=O)c1cccc(C(=O)Nc2ccccc2C(=O)N2CCOCC2)c1,3.4e-09,-0.6%,i,i,3%
Cc1nnc2sc(-c3ccc(NC(=O)c4ccc(-c5ccc(Br)cc5)o4)cc3)nn12,1e-09,1.5%,i,i,21%
Cc1ccc(Cl)cc1NC(=O)c1ocnc1C,2.3e-08,1.7%,i,i,0%
Cc1ccc2cc(CN(Cc3nnnn3Cc3ccco3)CC3CCCO3)c(=O)[nH]c2c1C (stereo not drawn),1e-09,3.9%,i,i,13%
OCCNCC1(O)C2CC3CC(C2)CC1C3 (stereo not drawn),3.5e-09,-2.6%,i,i,-5%
COC(=O)[C@@]1(Cc2ccccc2)[C@H]2c3cc(C(=O)N(C)C)n(Cc4cc(C)n(C)n4)c3C[C@H]2CN1C(=O)c1ccccc1,/,-0.4%,/,/,?
Cn1cccc1Cc1nnc(SCC(=O)Nc2nccs2)n1CCc1ccccc1,/,5.2%,/,/,21%
COC(=O)CNC(=O)Cn1ccc2ccccc2c1=O,1e-09,2.9%,i,i,-9%
COc1ccc(CCNC(=O)C2CCCN(Cc3nc(-c4ccccc4C)oc3C)C2)cc1OC (stereo not drawn),2.5e-09,-1.2%,i,i,2%[11.4 µM]
Cc1cc(C)n(CCc2nc3c4ccccc4n(CC(=O)Nc4ccc(Cl)cc4F)c(=O)n3n2)n1,1.1e-08,-2.1%,i,i,8%
O=C(NCCN1CCCCC1)Nc1ccc(F)c(Cl)c1,1e-09,0.1%,i,i,-11%
CCOC(=O)c1cc(C(C)(C)C)oc1CN,1.4e-08,0.4%,i,i,2%
COc1cccc(NC(=O)CN2CCN(c3ccc(F)cc3)CC2)c1,5e-08,4.3%,i,i,16%
Cc1cccnc1NC(=O)C1CCN(S(=O)(=O)c2ccc3c(c2)CCC(=O)N3)CC1,/,2.3%,/,/,5%
CC(=O)OC[C@@H]1O[C@H](CCO/N=C(\C)CCN2CCc3nc(-c4ccccc4)c(-c4ccccc4)cc3C2)C=C[C@@H]1OC(C)=O,/,-8.7%[11.5 µM],/,/,0%[11.4 µM]
Nc1ncnc2nc(SCc3ccccc3)[nH]c12,4.3e-08,/,i,i,/
CN(C)CCC[C@@H]1c2ccccc2Oc2ccc(C(F)(F)F)cc21,4.4e-08,0.7%[11.5 µM],i,i,10%[11.4 µM]
Cn1c(=O)[nH]c(=O)c2[nH]c(CN3CCN(C(=O)c4ccco4)CC3)nc21,1.9e-09,-1.3%,i,i,6%
COc1c2occc2c(OC)c2c(=O)cc(C(F)(F)C(F)(F)F)oc12,/,1.0%,/,/,12%[11.4 µM]
Cc1cccc2sc(NC(=O)CN(C)S(=O)(=O)c3cccs3)nc12,1e-09,-0.7%,i,i,7%
CCN(CC)CCNC(=O)c1ccc(Cc2nc3ccccc3[nH]2)cc1,/,3.5%,/,/,16%
c1cc(-c2nnc3n2CCC3)[nH]n1,1e-09,0.2%,i,i,-1%
Cc1ccc(S(=O)(=O)N2CCCCC2)cc1C(=O)c1nccn1C,7.7e-09,-1.0%,i,i,-3%
O=c1nc(N2CCOCC2)ccn1Cc1ccc(Br)cc1,4e-08,1.6%,i,i,1%
C[C@@]12CC[C@@H]3[C@H](CCC4=CC(=O)CC[C@]43C)[C@@H]1CC[C@@H]2C(=O)COS(=O)(=O)c1ccc(Br)cc1,3.3e-08,-2.4%[11.5 µM],i,i,0%[11.4 µM]
COc1ccc(N2CCN(C(=O)Cn3c(=O)[nH]c4ccsc4c3=O)CC2)cc1,2.3e-09,0.5%,i,i,8%
Cc1ccc2[nH]c3c(c2c1)CN(C(=O)CN1CCCc2ccccc21)CC3,2.3e-08,/,i,i,/
COc1ccccc1N1CCN(CC(=O)Nc2cc(C)nn2-c2nc(C)cc(C)n2)CC1,1.4e-09,-3.5%,i,i,21%
CCc1ccccc1N(CC(=O)O)S(C)(=O)=O,4.7e-09,0.2%,i,i,11%
CCCC1(C(=O)OC)NC(c2ccco2)C2C(=O)N(c3ccc(C)cc3)C(=O)C21 (stereo not drawn),1.9e-08,0.6%,i,i,?
Cc1nc2c(ccc3nc(NC(=O)c4ccc5c(c4)OCCO5)sc32)s1,1e-09,0.2%,i,i,?
Brc1ccc(-c2nc(-c3cccnc3)no2)o1,1e-09,-0.3%,i,i,2%
c1ccc(-c2noc(-c3ccncc3)n2)nc1,/,-1.9%,/,/,-4%[11.4 µM]
COc1ccc(N=[N+]([O-])c2ccc(OC)cc2)cc1,/,-0.4%,/,/,?
O=C1CC(C(=O)N(CC2CCCO2)C(C(=O)NC2CCCCC2)c2ccncc2)CS1 (stereo not drawn),3.4e-09,0.5%,i,i,15%
O=S(=O)(NCc1ccncc1)c1ccc(S(=O)(=O)NCC2CCCO2)cc1 (stereo not drawn),3.1e-08,-0.2%,i,i,8%
O=C(NC1CCCCC1)C(c1ccncc1)N(CC1CCCO1)C(=O)C(F)(F)F (stereo not drawn),5.8e-08,2.0%,i,i,10%
CCOC(=O)c1c(C)c(C(=O)Nc2ccccc2)c(C)n1CC,1e-09,0.0%,i,i,?
Cc1ccc(Nc2nc(N)nc(CN3CCN(c4ccccc4)CC3)n2)cc1Cl,1e-09,0.3%,i,i,3%
CC(=O)c1ccccc1OCC(O)CN1CCN(C(c2ccccc2)c2ccccc2)CC1 (stereo not drawn),3.1e-08,-0.7%,i,i,?
Cn1cccc1C(=O)N1CCC2(CCCN(C(=O)Nc3cccc(C#N)c3)C2)CC1,8.1e-09,1.1%,i,i,5%
CCn1c(SCC(=O)c2ccccc2)nnc1-c1cnccn1,1e-08,2.0%,i,i,-2%
Cc1nnc(NC(=O)CN2C(=O)c3ccccc3S2(=O)=O)s1,3.4e-08,-3.1%,i,i,-2%
CCOC(=O)N/N=C1/C[C@@H](O)[C@@H](O)[C@@H]2[C@@H]3C(=O)N(C(C)(C)C)C(=O)[C@H]3CC[C@H]12,/,0.5%[11.5 µM],/,/,?
CC[C@@H](c1ccccc1)n1c(=O)n2n(c1=O)[C@H]1[C@H](O)[C@H]3O[C@@H]3/C(=N/OCc3ccccc3)[C@@H]1CC2,/,0.7%[11.5 µM],/,/,2%[11.4 µM]
COCCCNC(=O)CN(c1cccc(Cl)c1C)S(C)(=O)=O,1.2e-08,0.7%,i,i,-2%
CC[C@H](CN(C)C)C(=O)c1ccco1,1e-09,-2.2%[11.5 µM],i,i,-3%[11.4 µM]
COc1cccc(-c2cc(C(=O)Nc3c(C)nn(Cc4ccccc4)c3C)no2)c1,6.1e-09,-1.5%,i,i,?
C[C@@H]1O[C@@H](O)[C@@H](O)[C@H](O)[C@H]1O,3.1e-08,-1.7%[11.5 µM],i,i,-4%[11.4 µM]
CCn1c(=O)c(=O)[nH]c2cc(C(=O)Nc3ccc(S(=O)(=O)N4CCCC4)cc3)ccc21,3.6e-08,-0.4%,i,i,0%[11.4 µM]
c1cncc(C2Nc3ccccc3-c3nc4ccccc4n32)c1 (stereo not drawn),1.5e-09,14%,i,i,28%
COC(=O)[C@@H]1C[C@H]1[C@@H](NS(=O)(=O)c1ccccc1)c1ccccc1,/,-1.0%,/,/,25%
CCOC(=O)c1cc(-c2ccc(C)cc2)n(CC(=O)NCc2ccco2)c1C,/,-0.3%,/,/,?
O=S(=O)(c1ccc2nc(COc3ccccc3)[nH]c2c1)N1CCOCC1,1.5e-08,-0.6%,i,i,-1%
Cc1ccccc1CN1CCN(CC(=O)NCc2ccc3c(c2)OCO3)C1=O,6e-09,-2.3%,i,i,4%
O=C(NCc1ccco1)C12CC3CC(C1)CC(C(=O)NCc1ccco1)(C3)C2,/,1.0%,/,/,?
CCOC(=O)CNC(=O)CN1CCCN(S(=O)(=O)c2ccc(Br)s2)CC1,2.3e-08,0.2%,i,i,-2%
O=C(C1=C(O)C(=O)N(CCN2CCOCC2)C1c1ccccc1)c1cccs1 (stereo not drawn),4.8e-08,-1.5%,i,i,-5%
Fc1cccc(C2CC(c3cccc(Br)c3)Nc3nnnn32)c1 (stereo not drawn),5.2e-09,1.0%,i,i,22%
CCOC(=O)NC1(C(F)(F)F)N=C(c2ccccc2)NC1=O (stereo not drawn),1e-09,0.5%,i,i,-7%
# Next section.
SMILES,A647 autofl,AID923,Resorufin fluor,A488 autofl,TSHR ag
COc1ccc(NCc2nnc(SCC(=O)Nc3cccc(C)c3)o2)cc1,4.4e-09,-0.4%,i,i,-2%
Cc1ccc(-c2nc(=S)c3c(n2CCN2CCOCC2)CC(C)(C)OC3)cc1,3.9e-08,-3.4%,i,i,3%
NNC(=O)CNc1cccc(Br)c1,3.8e-09,-2.4%[11.5 µM],i,i,13%[11.4 µM]
Cc1ccccc1NC(=O)Cn1c(=O)n(C)c2ccccc21,1e-09,0.9%,i,i,?
CC(C)CCNC(=O)CN(Cc1ccc2c(c1)OCO2)C(=O)CCC(=O)Nc1ccccn1,3.1e-08,-1.2%,i,i,7%
Cc1ccccc1Cn1nc(C)c(NC(=O)c2noc3c2CC(C(C)(C)C)CC3)c1C (stereo not drawn),2.6e-08,-2.2%,i,i,2%
COc1ccc(CCNC(=O)CN2CCCc3ccccc32)cc1OC,8.4e-09,-1.1%,i,i,2%
CC1CN(C(=O)Cc2ccc(-c3ccccc3)cc2)CC(C)O1 (stereo not drawn),4.4e-09,1.4%,i,i,?
CCn1c(Cc2ccc(OC)cc2)nnc1SCC(=O)Nc1nc2ccccc2s1,3.4e-08,-1.9%,i,i,10%
CC(=O)N1CCC2(CCN(Cc3ccc(C#N)cc3)CC2)CC1,1.4e-09,0.5%,i,i,?
CCc1cc(=O)oc2cc(OCC(=O)N3CCc4ccccc43)ccc12,1e-09,-0.5%,i,i,8%
CCCCc1cc(=O)oc2cc(OCC(=O)N(CC)CC)c(Cl)cc12,/,-1.5%,/,/,22%
CCOc1ccc(OCC)c(NC(=O)CNS(=O)(=O)c2cccs2)c1,1e-09,0.8%,i,i,-1%
Cc1ccc(S(=O)(=O)Nc2cccc(-c3cn4ccsc4n3)c2)cc1,1e-09,-0.2%,i,i,56%
CCOC(=O)C1CCN(C(=O)CSCCSCC(=O)N2CCC(C(=O)OCC)CC2)CC1,3.8e-09,-0.1%,i,i,3%
Cc1cc(OCCN2CCCC2)ccc1C(C)C,/,-2.2%,/,/,14%
Cc1c2c(nc3c(C(=O)NC4CC4)cnn13)CCCC2,2.9e-08,-0.6%,i,i,/
Cc1cc(=O)n2nc(-c3ccccc3)sc2n1,2e-09,1.6%,i,i,5%
O=C(NC1CCCC1)C1c2ccccc2C(=O)N1CCCN1CCOCC1 (stereo not drawn),/,2.1%,/,/,7%

# One compound at a time, from the list above. Order of values: A647 autofl, AID923, Resorufin fluor, A488 autofl, TSHR ag
# Shown for `Cc1cc(=O)n2nc(-c3ccccc3)sc2n1` = 2e-09, 1.6%, i, i, 5%
# Shown for `Cc1cc(OCCN2CCCC2)ccc1C(C)C` = /, -2.2%, /, /, 14%
# Shown for `O=C(NC1CCCC1)C1c2ccccc2C(=O)N1CCCN1CCOCC1` (stereo not drawn) = /, 2.1%, /, /, 7%
# Shown for `CCOC(=O)C1CCN(C(=O)CSCCSCC(=O)N2CCC(C(=O)OCC)CC2)CC1` = 3.8e-09, -0.1%, i, i, 3%
# Shown for `CCOc1ccc(OCC)c(NC(=O)CNS(=O)(=O)c2cccs2)c1` = 1e-09, 0.8%, i, i, -1%
